Hsc70 ATP site: small molecules displacing fluorescent ligand from Hsc70 – biochemical, fluorescence polarization, primary screen (AID 568) | Hsc70 fluorescence polarization, probe displacement; higher % means a stronger effect; strong numbers were not always called active | 83,000 tested, under 10 active | displacement, % at 20 µM; hits with a dose series show IC50 in µM;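 active = displacement above 50% without optical interference and an IC50 on retest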;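 also: ATPase domain with a fluorescein-tagged ATP probe; 0% = vehicle and 100% = excess ADP; read after one hour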
WNV protease inh: blocks West Nile virus NS2B-NS3 protease activity. z-score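 (tested at a level between 10 and 100 µM)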. WNV NS2B-NS3 protease, fluorogenic substrate Ex360/Em465; hits give low values. 65,000 tested, 0.18% active. AID 577;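 active = z-score at -3 or under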;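 also: score is relative to mean and spread of the compound wells of a plate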
Target sequence (P06935 1371-1501 limits assumed): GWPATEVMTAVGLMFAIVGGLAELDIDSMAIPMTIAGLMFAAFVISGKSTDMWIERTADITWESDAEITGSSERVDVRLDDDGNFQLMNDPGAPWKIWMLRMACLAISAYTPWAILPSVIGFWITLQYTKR
Target sequence (P06935 1502-1679 limits assumed): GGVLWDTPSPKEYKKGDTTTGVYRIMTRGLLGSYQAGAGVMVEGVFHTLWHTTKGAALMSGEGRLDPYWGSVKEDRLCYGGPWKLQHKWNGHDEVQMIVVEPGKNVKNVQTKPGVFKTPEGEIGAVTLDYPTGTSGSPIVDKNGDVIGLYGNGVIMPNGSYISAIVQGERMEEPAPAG
MT1-MMP reporter: MT1-MMP gene expression reporter suppression – cell-based, luciferase reporter, luminescence (AID 618); MT1-MMP promoter luciferase reporter cells, luminescence; 87,000 tested, 0.62% active; calls from a first round at 10 µM; hits with a dose series show EC50 in µM;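 active = over half of the reporter light lost at 10 µM or EC50 under 50 µM; inactive = the rest and hits that failed the dose series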;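 also: actives suppress MT1-MMP promoter-driven transcription so potencies describe inhibitors; HT1080 fibrosarcoma cells; overnight exposure; toxic or luciferase-blocking compounds were not removed from the actives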
Active calls of the source: *; i = inactive; nt = not tested or not shown.

Results follow in this order: Hsc70 ATP site, WNV protease inh, MT1-MMP reporter
CCCCC(CC)Cn1c2nc3ccccc3nc2c2c(=N)oc(C)nc21 (stereo unspecified)
 : -57%, 0.37, i
CCOc1ccc(NC2CCN(C(C)=O)CC2)cc1
 : 4.3%, 0.5, i
Cc1ccc(S(=O)(=O)N2CCCC(C(=O)Nc3ccc(NC(=O)c4ccccn4)cc3)C2)cc1 (stereo unspecified)
 : 2.6%, nt, i
COc1ccccc1CN(Cc1nc2ccccc2c(=O)[nH]1)C(=O)Nc1ccccc1
 : -0.6%, 0.13, i
CC1Cc2ccccc2N1C(=O)CCS(=O)(=O)c1cccc2nonc12 (stereo unspecified)
 : 2.2%, -0.71, i
Cc1ccccc1OC(C)C(=O)NC1CCCC1 (stereo unspecified)
 : 7.2%, 1.4, i
CC1CCC2(CC1)NC(=S)N(c1ccccc1)N2 (stereo unspecified)
 : -5.2%, nt, i
Clc1ccc(-c2nnc(N3CCCC3)nn2)cc1
 : -3.6%, 0.06, 6.4µM*
COC(=O)CCCC[C@@H]1SC[C@@H](NC(=O)OC)[C@@H]1NC(=O)OC
 : -5.1%, nt, i
COC(=O)c1c(C(=O)OC)c2oc3ccccc3n2c1Cl
 : 2.3%, -1.1, i
Cn1c(C(O)c2ccc3c(c2)OCO3)nc2ccccc21 (stereo unspecified)
 : -7.2%, -0.71, i
CCOC(=O)N1CCN(S(=O)(=O)c2cccc3nsnc23)CC1
 : -3.3%, 0.22, i
COCCn1c(SCC(=O)N2CCCC2)nnc1-c1ccoc1C
 : -2.0%, -0.6, i
Clc1ccc(C2=Nn3c(nnc3-c3n[nH]c4c3CCC4)SC2)cc1
 : -0.1%, 0.15, i
O=C(Nc1ccc(O)cc1C(=O)O)c1cccc(Br)c1
 : 0.0%, -0.26, i
O=C(Cn1c2c(c(-c3ccccc3)cc1=O)CCCC2)N1CCCCCC1
 : -0.3%, 1.7, i
CCc1nnc(NC(=O)CSc2ncc(-c3ccccc3)n2CC)s1
 : -7.4%, -0.7, i
COc1ccc(C2C(C(=O)N3CC(C)CC(C)C3)c3ccccc3C(=O)N2C)cc1 (stereo unspecified)
 : -6.2%, 0.09, i
Cc1ccnc(Sc2ncccc2[N+](=O)[O-])n1
 : -5.2%, nt, i
CC(=O)c1cn(CC(=O)NCc2ccco2)c2ccccc12
 : -7.0%, nt, i
CCC1CCCCN1CCCNC(=O)C1CCN(S(=O)(=O)N2CCCCC2)CC1 (stereo unspecified)
 : -1.8%, -0.41, i
NC(=O)c1cnn2c(C(F)(F)F)cc(-c3ccccc3)nc12
 : -5.4%, 0.17, i
CCOC(=O)C1CCCN(C(=O)Cn2ncc3c(=O)oc4ccc(C)cc4c32)C1 (stereo unspecified)
 : 2.9%, -0.8, i
CCOC(=O)c1c(-c2ccccc2)oc2ccc(O)c(CN(C)C)c12
 : 0.5%, nt, i
NC(=O)CSc1ncnc2c1oc1ccccc12
 : -2.7%, -0.43, i
COc1cc(C(=O)OCC(=O)NCc2ccccc2)cc(NC(=O)c2ccco2)c1OC
 : 4.3%, nt, i
CC(C)N1C(=O)CCC1C(=O)NCCc1ccccc1 (stereo unspecified)
 : -5.6%, -0.48, i
Cn1c(=O)n(C)c2cc(C(N)=O)ccc21
 : 2.4%, 1.2, i
Cc1ccc(CNn2cnnc2SCC(=O)NC(C)(C)C)cc1
 : -1.2%, 1.1, i
CSc1nc2ccc(NC(=O)C3CCCO3)cc2s1 (stereo unspecified)
 : 12%, 1.7, i

More compounds
Results follow in this order: Hsc70 ATP site, WNV protease inh, MT1-MMP reporter
COc1cc(NC(=O)CCN2CCN(c3ccccc3F)CC2)cc(OC)c1
 : 0.6%, 2.1, i
C=C(C)n1c(=O)[nH]c2ccccc21
 : -8.8%, -0.5, i
CCCCCC(=O)N(O)C1CC(=O)N(c2ccccc2)C1=O (stereo unspecified)
 : 3.5%, -0.82, i
c1ccc2c(c1)ncn2CCOCCOCCn1cnc2ccccc21
 : 1.3%, nt, i
NCc1ccc(-c2nc3ccccc3o2)cc1
 : -0.6%, 1.5, i
Cc1cc(C)cc(NC(=O)CSc2nnc(-c3ccc(S(=O)(=O)N4CCCC4)cc3)o2)c1
 : -2.1%, -0.59, i
CCOC(=O)N1CCC(N2Cc3cccc(C(=O)O)c3C2=O)CC1
 : 4.9%, 0.76, i
Cc1cc(Cl)c(S(=O)(=O)N2CCCCCC2)cc1OCC(N)=O
 : -1.2%, 1.9, i
COc1ccccc1-c1nc2n(n1)C(c1ccccc1Cl)C(C(N)=O)=C(C)N2 (stereo unspecified)
 : 2.8%, -0.41, i
CCCOc1c(OC)cccc1C1CC(=O)Nc2cc(OC)c(OC)c(OC)c21 (stereo unspecified)
 : -8.9%, -0.21, i
CC1(C)CC(=O)C2=C(C1)N(c1ccccc1)C(N)=C(C#N)C2c1cccnc1 (stereo unspecified)
 : -3.0%, -0.4, i
Cc1ccccc1-n1c(SCC(=O)Nc2ccc3c(c2)OCO3)nnc1-c1ccccn1
 : 1.7%, nt, i
Cc1ccc(C2=NN3C(C2)c2ccccc2OC32C(=O)Nc3ccccc32)cc1 (stereo unspecified)
 : 0.6%, nt, i
COc1ccccc1OCc1nnc(SCC(=O)NCc2ccco2)n1-c1ccccc1
 : 1.5%, nt, i
O=C1CCCCCC1C1(O)C(=O)Nc2ccccc21 (stereo unspecified)
 : -2.3%, 0.96, i
CCCCOC(=O)C1=C(C)Nc2ncnn2C1c1ccc(OC)c(OC)c1OC (stereo unspecified)
 : 0.5%, -0.81, i
COc1cc2[nH]c3c(N4CCN(c5ccccn5)CC4)ncnc3c2cc1OC
 : -2.5%, -0.54, i
c1ccc(Cn2ccc(-c3cnc(-c4ccccc4)s3)n2)cc1
 : 2.2%, nt, i
CC(C)N(C(=O)COc1ccc(Br)cc1Cl)C(C)C
 : -0.7%, -0.42, i
CCOC(=O)C1CCN(C(=O)c2sc3ncnc(N4CCC(C)CC4)c3c2C)CC1
 : 4.1%, nt, i
CCN1C(=O)N(C)C2(c3ccccc3)N(C)C(=O)N(C)C12c1ccccc1 (stereo unspecified)
 : 0.2%, 0.13, i
COC(=O)c1c(-c2ccc(OC)c(OC)c2)csc1N
 : 1.4%, 0.93, i
CC(C)C(c1nnnn1C1CCCCC1)N1CCCc2ccccc21 (stereo unspecified)
 : -6.8%, nt, i
Cn1ccnc1Sc1nnnn1-c1ccccc1
 : -3.0%, 0.33, i
CC(=O)Nc1ccc2c(c1)nc1n2CCOC1
 : 1.4%, nt, i
O=C(NCc1cccnc1)C1CCN(S(=O)(=O)N2CCC3(CC2)OCCO3)CC1
 : -2.1%, 0.47, i
CCNc1nc(Cl)nc(N(NC(C)=O)C(C)CC)n1 (stereo unspecified)
 : 0.5%, nt, i
OC(CC1CC12c1ccccc1-c1ncccc12)(c1ccccc1)c1ccccc1 (stereo unspecified)
 : -3.8%, nt, i
C=CCn1c(SCC(=O)Nc2cccc3ccccc23)nc(O)c(CC)c1=O
 : -0.2%, nt, i
COc1ccc(-c2nnc(SC(=O)N3c4ccccc4Sc4ccccc43)o2)cc1
 : -7.1%, -0.48, i

Some values from the results shown.
For WNV protease inh, C=C(C)n1c(=O)[nH]c2ccccc21 reads -0.5
For WNV protease inh, COc1cc(NC(=O)CCN2CCN(c3ccccc3F)CC2)cc(OC)c1 reads 2.1
For Hsc70 ATP site, O=C1CCCCCC1C1(O)C(=O)Nc2ccccc21 (stereo unspecified) reads -2.3%
For WNV protease inh, Cc1cc(Cl)c(S(=O)(=O)N2CCCCCC2)cc1OCC(N)=O reads 1.9

The listing continues.
Results follow in this order: Hsc70 ATP site, WNV protease inh, MT1-MMP reporter
O=C1c2ccccc2C(=O)N1Cc1nc(-c2ccncc2)no1
 : 1.0%, 0.81, i
COc1ccc(C(=O)c2ccc(N3CCN(C4CC(=O)NC4=O)CC3)cc2)cc1F (stereo unspecified)
 : 4.7%, -0.1, i
Cc1ccc2nc(-c3ccccn3)cc(C(=O)NC3CCN(C)CC3)c2c1
 : -1.1%, -0.26, i
CCOC(=O)Cn1cnc2c(nnn2-c2ccc(C)cc2)c1=O
 : -4.4%, -0.47, i
COC(=O)c1ccc(Oc2nc(C(N)=O)cc(-c3ccccc3)n2)cc1
 : -1.3%, nt, i
CCOC(=O)c1cc(-c2cccs2)nn1CCC#N
 : -0.3%, -0.38, i
Nc1ncc(-c2cc3ccccc3oc2=O)s1
 : 2.5%, -0.02, i
COc1ccc(-c2nnc(CSc3ncnc4sc5c(c34)CCC5)o2)cc1OC
 : 3.1%, 1.4, i
Cc1nc(SCc2ccccc2)c(C(F)(F)F)c(=O)[nH]1
 : 3.8%, -1.6, i
COCC(C)OC(=O)c1c(N)n(CC(C)C)c2nc3ccccc3nc12 (stereo unspecified)
 : -0.3%, nt, i
Cc1nc2ccccc2c2c1C(=O)N(Cc1cccnc1)C2=O
 : 6.0%, nt, i
CCn1cc(C(C)(C)C)c(C#N)c1NC(C)=O
 : 1.6%, 1.6, i
CCOc1cc(CNc2ncnc3nc[nH]c23)ccc1OC
 : -0.3%, 0.1, i
C=CCn1c(N)c(C(=O)Nc2ccccc2OC)sc1=S
 : 4.1%, -1.2, i
Cc1nn(CCC(=O)O)c(C)c1C
 : -1.5%, nt, i
CCN(Cc1ccccc1)C(=O)CC1Oc2ccccc2NC1=O (stereo unspecified)
 : -1.0%, 0.53, i
COc1cccc(NC(=O)CSc2nnc(-c3cc(C)n(-c4ccccc4)c3C)o2)c1
 : -4.7%, -0.02, i
O=S(=O)(CCc1ccccc1)/N=C/c1cccs1
 : -1.2%, 0.24, i
O=C1c2cccc3cccc(c23)C(=O)N1c1cccnc1
 : -3.9%, -0.15, i
Cc1ccc(S(=O)(=O)N2CCCC2C(=O)N(C)Cc2cccs2)cc1 (stereo unspecified)
 : -0.6%, 0.08, i
CN(C)S(=O)(=O)N(CC(=O)N(Cc1ccccc1)Cc1ccccc1)c1ccccc1
 : 0.6%, nt, i
Cc1cc(C)n(-c2ccc(C(=O)NCc3ccc4c(c3)OCO4)cc2)n1
 : -4.2%, 2.4, i
CC(=O)Nc1cccc(Oc2ccc(-c3noc(C)n3)cc2)c1
 : -0.3%, 2.2, i
Cc1ccc(Cn2c(SCC(N)=O)nc3c2c(=O)n(C)c(=O)n3C)cc1
 : -2.0%, -0.42, i
NC(=O)C(c1ccccc1)C1CCCC1 (stereo unspecified)
 : 1.2%, -0.06, i
O=c1c2ccccc2nc(SCc2nc3ccccc3s2)n1Cc1ccco1
 : -2.1%, 1.9, i
CCN(CC)CCCC(C)NC1=NCCCCC1 (stereo unspecified)
 : 5.7%, -0.43, i
Cc1ccc(C(=O)OCc2cn3ccccc3n2)cc1
 : 0.5%, -0.42, i
CC(C)CC(=O)Nc1ccccc1N1CCCC1
 : -1.2%, -0.78, i
CC(=O)Nc1ccc(S(=O)(=O)Nc2nnc(C3CCCCC3)s2)cc1
 : 1.9%, -1.3, i

Three structures out of the list, arranged by SMILES length, lowest first.
Results follow in this order: Hsc70 ATP site, WNV protease inh, MT1-MMP reporter
Cc1ccccc1OC(C)C(=O)NC1CCCC1 (stereo unspecified)
 : 7.2%, 1.4, i
O=S(=O)(CCc1ccccc1)/N=C/c1cccs1
 : -1.2%, 0.24, i
CCOC(=O)N1CCC(N2Cc3cccc(C(=O)O)c3C2=O)CC1
 : 4.9%, 0.76, i

In the list so far, these have a COOH group.
Results follow in this order: Hsc70 ATP site, WNV protease inh, MT1-MMP reporter
O=C(Nc1ccc(O)cc1C(=O)O)c1cccc(Br)c1
 : 0.0%, -0.26, i
CCOC(=O)N1CCC(N2Cc3cccc(C(=O)O)c3C2=O)CC1
 : 4.9%, 0.76, i
Cc1nn(CCC(=O)O)c(C)c1C
 : -1.5%, nt, i

(cont.)
canonical_smiles	Hsc70 ATP site	WNV protease inh	MT1-MMP reporter
CCOCCCN1C(=O)CN(C2CCCCC2)C(=O)C1c1ccc(OC)c(OC)c1 (stereo unspecified)	-3.3%	0.41	i
CCSCCNC(=O)c1cc(-n2cnnc2)ccc1Cl	6.0%	2.1	i
CCOc1ccc(NC(=O)C(C)Sc2nnc(C)n2C)cc1 (stereo unspecified)	6.9%	-0.14	i
COc1cccc(C(=O)NC2CCN(CC(=O)Nc3nccs3)CC2)c1	1.1%	nt	i
Cc1cc(C)c2[nH]c(=O)c(CN(Cc3ccco3)C(=O)C3CCCO3)cc2c1 (stereo unspecified)	-1.3%	1.6	i
CCSc1sccc1C1C(C#N)=C(N)N(c2cccnc2)C2=C1C(=O)CC(C)(C)C2 (stereo unspecified)	4.3%	0.54	i
Nc1nc(CSc2ccccn2)nc(Nc2ccccc2)n1	-2.0%	-0.71	i
CC1CCN(S(=O)(=O)c2ccc(NC(=O)CSc3nnnn3C)cc2)CC1	3.5%	0.62	i
CS(=O)(=O)N1CCN(c2ncccn2)CC1	-1.1%	0.25	i
CC(=O)N(CC(=O)Nc1nn(-c2ccccc2)nc1C(N)=O)Cc1ccccc1	-0.3%	-0.42	i
CC1(O)c2ccccc2C(=O)N1Cc1ccccc1 (stereo unspecified)	2.0%	-0.7	i
Cc1onc(-c2ccccc2Cl)c1C(=O)NCCN1CCOCC1	-12%	-0.95	i
Cc1scc(C(=O)NCc2ccco2)c1-c1ccccc1	-1.7%	0.21	i
CCOC(=O)CNC(=O)CSc1nnc(Cn2c(=O)sc3ccccc32)n1-c1ccccc1C	-2.3%	0.04	i
CCc1nnc(NC(=O)C2CCCN(c3nc(C)cc(C)n3)C2)s1 (stereo unspecified)	-8.9%	-0.42	i

Bioassay records (PubChem)
